# Screening data as filed in PubChem BioAssay.
# PrP 5UTR inh: inhibition of PrP 5' UTR reporter expression. cell-based PrP 5' UTR mRNA reporter, plate reader. inhibition, % (no concentration beside the values). 0.35% of 340,000 active;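 active = every replicate at 50% or more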;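 also: 0 = median of the neutral control wells; tested in H4 reporter cells; numbers are from one replicate; inactives centre near -14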
# Autofluor counter: counter-screen for toxin protease inhibitors: compound fluorescence; compound autofluorescence counterscreen, microsphere flow cytometry; hits give high values; fluorescence intensity (no concentration beside the values); 3.1% of 360,000 active; AID 624483;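 active = at least 3 SD above the mean of all compounds, about 16000 in these data; inconclusive = too few beads counted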;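 also: 100 nL of 1 mM stock went into each well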
# Sa ugtP lethal: compounds lethal to S. aureus RN4220 ugtP deletion mutant | OD600 growth, 16 h; some inactives read as strong as hits | growth inhibition, % (concentration not given with the values) | 0.54% of 330,000 active | AID 1259309;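 active = z-score under -3 and OD600 up to 0.15 on both plates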;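 also: plate controls were untreated wells for no effect and antibiotic for full effect; wells of about 80 µL received 100 nL stock; the first replicate is given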
# Mtb hypoxia inh: Mtb hypoxia fluorescent reporter inhibition | M. tuberculosis hypoxia-regulated fluorescent reporter, fluorescence | 0.1% of 300,000 active | fluorescence inhibition, % (test concentration not listed);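 active = 35 to 45% if threefold the growth effect, above 45% if 1.5-fold the growth effect; inactive = the rest, general growth blockers included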;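 also: wells of about 50 µL received 100 nL stock; 0% = vehicle wells and 100% = reference inhibitor wells; whole bacteria with a GFP reporter of the hypoxia response; strong numbers were not always called active; many hits fall short of the cut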
# Sa RN4220 lethal: kills Staphylococcus aureus RN4220. AID 1259311. S. aureus RN4220 growth, OD600, 16 h. 0.33% of 330,000 active. inhibition, % (test concentration not listed);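 active = z-score of -3 or lower and OD600 up to 0.18 on both plates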;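 also: plate controls were untreated cells for no effect and reference antibiotic for full effect; stock transfer was 100 nL into about 80 µL; one replicate is shown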
# BJeLR viability: BJeLR cell viability loss; BJeLR (HRASV12) viability, CellTiter-Glo ATP luminescence, 48 h; reference of the scale not given here; inhibition, % (no concentration beside the values); 0.17% of 300,000 active; AID 1554;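 active = replicate mean above 50%; inconclusive = above 50% but judged a plate artefact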;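 also: 50 nL library stock added to about 25 µL; numbers are from one replicate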
# Mtb hypoxia inh growth: recorded beside Mtb hypoxia inh, whose call it bears; growth inhibition, %; measured here: M. tuberculosis growth (absorbance);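 0% = vehicle and 100% = reference antibiotic; read after six days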
# Active calls of the source: *; ? = inconclusive; . = not tested or not shown.
SMILES,PrP 5UTR inh,Autofluor counter,Sa ugtP lethal,Mtb hypoxia inh,Mtb hypoxia inh growth,Sa RN4220 lethal,BJeLR viability
Cc1cccc(NC(=O)Cn2nnc(-c3ccc(CN4CCCC4)cc3)n2)c1C,-13,3696,6,10,12,5.8,-3
COc1ccc(/C(O)=C2/C(=O)C(=O)N(c3ncccn3)C2c2ccc(OC)cc2)cc1 (configuration not stated),-31,2435,3,18,5,2.9,-4
CN1CCC(=NNC(=O)C(=O)Nc2ccccc2F)CC1,-9,4357,3,8,-2,1.8,-7
COCCn1c(SCC(=O)OC(C)C)nnc1-c1ccccc1,-74,24184*,0,0,-3,4.4,1
O=C(NCCc1nc2ccccc2[nH]1)c1ccc(F)cc1,-5,11456,4,7,9,2.0,-10
NC(=O)c1ccc(NC(=O)CN2CCN(Cc3ccccc3)CC2)cc1,-23,3575,1,10,6,3.1,-8
COc1ccc(-c2nnc3sc(C4CCCCC4)nn23)cc1OC,-12,.,-3,-3,14,6.3,-5
Cc1cc(=O)oc2cc(OC(=O)c3nn(C(C)C)c(=O)c4ccccc34)ccc12,-35,2561,0,-6,7,0.9,-2
CN(C)C(CNC(=O)CCOc1ccccc1)c1ccco1 (configuration not stated),-4,4590,-6,-6,-4,2.2,2
CCOc1ccc(N(C(C)=O)C2C=CS(=O)(=O)C2)cc1 (configuration not stated),-29,5667,3,.,.,0.2,0
Cc1cc(C#N)c(SCC(N)=O)nc1-c1ccc(F)cc1,-5,3225,5,13,2,1.1,-7
COC(=O)c1sc(N)c(C(=O)OC)c1COC(=O)c1c(C)noc1C,-53,20148*,5,1,3,2.9,24
Cc1occc1-c1nnc(SCC(=O)Nc2nc(C(C)(C)C)cs2)o1,.,10681,6,4,7,3.9,0
CC(C)COC(=O)n1c(SCC(N)=O)nc2ccccc21,-12,6630,2,-8,15,0.1,-2
CCc1nnc(NC(=O)c2cccc(S(=O)(=O)N3CC(c4ccccc4)CC3=O)c2)s1 (configuration not stated),-28,4349,-1,.,.,5.7,-12
Cc1ccccc1CSCCNC(=O)c1ccccc1,-5,11342,6,10,10,1.5,4
COc1ccc(-c2c(C)nn3c(N4CCC(C(=O)N5CCCCC5)CC4)cc(C)nc23)cc1OC,-20,4242,11,11,8,6.1,-3
Cc1ccc([C@H]2C(C(=O)O)=CC[C@@H](c3ccc(Cl)cc3)N2S(=O)(=O)c2ccc(C)cc2)cc1,8,3845,7,-5,8,15,.
COc1ccc(C=c2sc3n(c2=O)C(c2ccccc2OC)C2=C(N=3)c3ccccc3CC2)cc1O (configuration not stated),.,.,0,-7,2,-4.3,.
COc1cccc(NC(=O)CCCn2c(=O)[nH]c3ccccc3c2=O)c1,-7,3785,0,13,18,2.2,-25
CCOc1ccccc1N(CC(=O)Nc1cc(OC)ccc1OC)S(=O)(=O)c1ccccc1,-11,3721,5,18,10,-1.8,0
O=C(Nc1ccncc1)c1ccc2c(c1)OCCO2,-18,3165,0,5,5,8.2,8
CC1CN(C2CCCCC2)c2nc3c(c(=O)[nH]c(=O)n3C)n2C1 (configuration not stated),3,2307,7,.,.,-0.8,-5
Cn1c2ccc(F)cc2c2nnc(NN)nc21,.,5481,-6,9,-3,3.8,-1
CC(C)(CC(=O)O)CC(=O)N1CCN(c2cc(C(F)(F)F)nc3ccccc23)CC1,-19,3593,11,-11,0,3.9,7
O=C(Nc1ccon1)c1csc2c1CCCC2,-28,11274,-5,-7,8,1.7,-12
CSc1nc(N)nc(SCC(=O)Nc2cccc(F)c2)c1C#N,5,2047,-15,21,15,10,8
Cc1ccc(C)c(NC(=O)CSc2nnc(-c3n[nH]c4ccccc34)o2)c1,-8,2528,1,9,4,1.5,-7
OCCC1CN(Cc2ccc(-c3ccco3)cc2)CCN1Cc1ccsc1 (configuration not stated),-23,3413,-1,12,0,9.3,.
CN(C)S(=O)(=O)c1ccc2c(c1)c(=O)c(C(=O)NCCCN1CCCCCC1)cn2C,-9,5873,0,.,.,8.4,0
Cc1ccc(/C=N/NC(=O)CSc2nnc(-c3ccc(Cl)cc3)n2-c2ccc(Cl)cc2)o1,-5,1890,.,.,.,.,0
Cc1ccc(OCCNC(=O)c2ccccc2F)cc1,-32,3717,23,15,7,4.7,4
O=C(CCN1C(=O)NC2(CCCC2)C1=O)Nc1ccc(-c2nc3ccccc3s2)cc1,-16,3561,-11,-1,11,4.4,.
COc1ccc(C2SCC(=O)N2c2ccc(C)cc2)cc1 (configuration not stated),-61,3692,2,1,2,3.2,-1
O=C(CS(=O)(=O)Cc1ccccc1)N1CCN(c2ccccc2F)CC1,-3,5974,5,2,-1,3.6,-4
COc1cc(NC(=O)CN2C(=O)c3ccccc3Sc3ccc(C(=O)N4CCOCC4)cc32)cc(OC)c1OC,-30,4211,-3,-9,0,-1.1,0
CCC(=O)Nc1nnc(SCCOC)s1,-15,3278,9,.,.,-2.9,2
COc1cccc(N2CCN(C(=O)c3cc4ccc(OC)cc4[nH]3)CC2)c1,-15,3725,-6,-3,6,0.4,-2
COc1ccccc1NC(=O)/C(=C\c1cccs1)NC(=O)c1ccco1,-19,4478,4,8,1,3.4,-7
CCCC1=C(C(=O)OCC)C2(C(=O)Nc3ccc(C)cc32)C(C#N)=C(N)O1 (configuration not stated),2,20310*,3,0,5,16,1
Cc1cc(NS(=O)(=O)c2ccc(NC(=O)/C=C/c3ccco3)cc2)nc(C)n1,-17,3720,-2,3,-5,0.3,-1
CCOc1ccccc1OCCCCN1CCCC1,5,4870,2,.,.,0.8,-25
Cc1nc2ccc(NC(=O)NCCO)cc2s1,-5,2850,-2,12,5,6.1,-1
COc1cc(NC(=O)c2cc(C)nc3ccccc23)cc(OC)c1OC,-6,4191,2,1,6,-1.4,.
COc1cc(/C=C/c2[nH]c(=O)[nH]c(=O)c2[N+](=O)[O-])cc([N+](=O)[O-])c1O,-11,3992,3,.,.,1.5,2
CCC(=O)n1nc(-c2ccc(Cl)cc2)nc1N,-27,4294,8,5,8,5.4,3
COc1cc(NC(=O)Cn2c([N+](=O)[O-])cnc2C)c(OC)cc1Cl,-44,3641,4,16,9,2.4,2
CCC1CCC2(CC1)NC(=O)N(CC(=O)Nc1cc(C)on1)C2=O (configuration not stated),-22,10087,-2,6,3,3.1,-11

# One compound at a time, from the list above. Screens in order: PrP 5UTR inh | Autofluor counter | Sa ugtP lethal | Mtb hypoxia inh | Mtb hypoxia inh growth | Sa RN4220 lethal | BJeLR viability
# COc1cc(/C=C/c2[nH]c(=O)[nH]c(=O)c2[N+](=O)[O-])cc([N+](=O)[O-])c1O as listed: -11 | 3992 | 3 | . | . | 1.5 | 2
# CCOc1ccccc1OCCCCN1CCCC1 as listed: 5 | 4870 | 2 | . | . | 0.8 | -25

# Next records follow:
SMILES,PrP 5UTR inh,Autofluor counter,Sa ugtP lethal,Mtb hypoxia inh,Mtb hypoxia inh growth,Sa RN4220 lethal,BJeLR viability
Cc1cccc(NC(=O)CCCCCN2C(=O)[C@@H]3Cc4ccccc4CN3C2=O)c1,-15,5383,0,2,0,2.4,3
Cc1cc(/C=N/NC(N)=S)c(C)n1-c1ccc(Cl)cc1,-34,2195,.,.,.,.,-11
CCOc1ccccc1-c1cc(-c2n[nH]c(=S)n2CC)c2ccccc2n1,0,2133,2,4,10,3.2,7
CCN(Cc1ccncc1)C(=O)c1ccc2c(c1)S(=O)(=O)c1ccccc1C2=O,5,3214,7,-4,-4,4.4,1
COc1ccc(-n2c(SCC(=O)Nc3ccc(NC(C)=O)cc3)nc3ccccc3c2=O)cc1,-6,3715,9,-6,2,1.8,-5
O=C(CCC(=O)OCC(=O)c1ccc(Cl)cc1)NC1CCCCC1,-16,?,5,21,4,1.9,-8
CCOc1ccccc1C(=O)OCC(=O)NCCc1ccc(OC)cc1,-30,3749,2,-2,3,7.9,.
Cc1cc(S(=O)(=O)N2CCCCC2CCNC(=O)C(=O)NCc2cccnc2)ccc1F (configuration not stated),-17,6954,10,13,0,1.9,-1
Cc1ccc(C(C(=O)NC(C)(C)C)N(CCCN2CCOCC2)C(=O)c2ccc(-c3ccccc3)[nH]2)o1 (configuration not stated),-8,4394,1,8,3,3.7,-12
O=C(CSc1nc2sc3c(c2c(=O)n1-c1ccccc1)CCCC3)NN=Cc1ccccc1C(=O)O,.,.,-2,4,9,17,.
COc1ccc(C=NNC(=O)C(=O)N2CCN(c3ccccc3OC)CC2)cc1,.,.,3,12,5,6.4,.
CO/N=C\CC(=O)Nc1ccc(Cl)c(Cl)c1,-30,4635,.,.,.,.,13
CCOC(=O)c1c(/N=C/C2=C(O)CC(C)(C)CC2=O)sc(C(C)=O)c1C,-24,4496,.,.,.,.,13
COc1ccc(CCNC(=O)C2CCN(S(C)(=O)=O)CC2)cc1,2,8691,4,-3,-4,2.8,-9
CCOC(=O)c1c(N)n(CCN2CCCCC2)c2nc3ccccc3nc12,-21,11093,-1,1,4,1.8,8
Cc1noc(C)c1C(=O)Nc1ccc(Cl)cc1C(F)(F)F,-1,23519*,1,5,2,2.1,-9
Cc1ccccc1NC(=O)c1cccc(S(=O)(=O)Oc2ccc([N+](=O)[O-])cc2)c1,-14,5184,-5,-4,4,-4.4,-13
Nc1cc(S(=O)(=O)Nc2ccc(Br)cc2)ccc1Cl,-23,5022,-14,17,11,-11,-8
O=C(O)c1ccc(NN=Cc2cccc3cccnc23)cc1,.,.,73,7,8,60,.
NC(=O)C1C2C=CC(C2)C1c1ccccc1 (configuration not stated),-25,3616,3,8,3,3.1,.
O=S(=O)(c1ccc(NCCc2c[nH]c3ccccc23)nc1)N1CCOCC1,-7,3555,-2,7,12,0.3,-2
O=C(Nc1ccc([N+](=O)[O-])cn1)c1cccnc1,-5,4282,1,1,-19,-2.7,-13
C/C(=N\NC(=S)NCc1ccccc1)c1cccs1,-5,4036,.,.,.,.,4
Cc1ccc(C(=O)NCc2ccc3c(c2)OCO3)cc1C,-34,2737,.,.,.,.,-8
CSC1CCCCC1(O)CSc1nc2ccccc2o1 (configuration not stated),-17,9120,-1,15,5,3.0,3
CCCN(C(=O)CSc1cc(-c2ccccc2)c2ccc(OC)cc2n1)C1CCS(=O)(=O)C1 (configuration not stated),-22,2340,5,1,3,0.4,-2
O=C(CSc1ccccc1)N1CCC2(CC1)OCCO2,-24,10861,0,7,12,0.4,-2
Cc1ccc(C=NNC(=O)c2ccoc2C)s1,.,.,-6,3,13,0.9,.
CC(C)C(=O)N1CCc2cc(-c3csc(N)n3)ccc21,-76,12433,0,8,3,4.9,-10
CC(C)CC1Nc2ncnc(N3CCOCC3)c2N(Cc2ccc(Br)cc2)C1=O (configuration not stated),-10,3989,5,14,5,2.9,-3
Cc1cccc(C2NC(c3cccc(C)c3)C(C)C(=O)C2C)c1 (configuration not stated),-6,2932,62,10,-5,-0.9,-16
Cn1c(=O)c2c(SCC(=O)NCC3CCCO3)nc(-c3ccccc3Cl)nc2n(C)c1=O (configuration not stated),-47,5932,13,7,8,3.5,8
O=C(N/N=C/c1ccccc1O)C1CCCC1,-27,6113,.,.,.,.,0
CCN(CC)CCCn1c(=S)[nH]c2cc(OC)c(OC)cc2c1=O,-7,22782*,-4,2,6,-3.6,6
COc1ccc2c(c1)c(C(=O)CN1CCN(C(=O)c3ccco3)CC1)c(C)n2C,7,7872,-2,-1,2,-2.7,1
Cc1ccc(S(=O)(=O)N(C)c2ccc3ccccc3c2)cc1,-11,4006,7,0,6,-6.6,0
Cc1ccc2cc(CCNC(=O)c3ccc(S(=O)(=O)N4CCCCC4)cc3)c(=O)[nH]c2c1,-14,2289,6,7,5,5.9,-5
CC(CC(=O)Nc1cc(Cl)ccc1C)=NNC(N)=O,.,.,10,-17,-2,1.8,.
COC(=O)C1=C(C)NC(=O)/C1=C\c1ccco1,-7,4500,9,.,.,7.7,-10
O=C(NC(=S)N1CCCC1)c1ccc(Cl)cc1Cl,-26,5707,1,10,0,0.7,3
CCN(CC)S(=O)(=O)c1cccc(NC(=O)C2CC(=O)N(c3ccc4c(c3)OCCO4)C2)c1 (configuration not stated),-21,?,-6,7,3,4.0,3

# Part of the list above, showing only Mtb hypoxia inh growth.
compound	Mtb hypoxia inh growth
CC(C)(CC(=O)O)CC(=O)N1CCN(c2cc(C(F)(F)F)nc3ccccc23)CC1	0
CCN(CC)S(=O)(=O)c1cccc(NC(=O)C2CC(=O)N(c3ccc4c(c3)OCCO4)C2)c1 (configuration not stated)	3
Cc1ccc([C@H]2C(C(=O)O)=CC[C@@H](c3ccc(Cl)cc3)N2S(=O)(=O)c2ccc(C)cc2)cc1	8
COc1ccc(CCNC(=O)C2CCN(S(C)(=O)=O)CC2)cc1	-4
